Cruzain inh Det – qHTS Assay for Promiscuous and Specific Inhibitors of Cruzain (with detergent); Cruzipain (Trypanosoma cruzi), P25779; purified cruzain, Z-FR-AMC fluorescence, 0.01% Triton; Potency, µM, for inactives: max response, negative = inhibition, hits mostly inhibitors; 0.43% of 200,000 active; AID 1478, 2009;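 further: plate controls were neutral wells for no effect and buffer without enzyme for full effect; nearly all actives have a fitted effect of over 40% in size; top concentration of the series not given in the record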
Target sequence (P25779 123-467 limits assumed): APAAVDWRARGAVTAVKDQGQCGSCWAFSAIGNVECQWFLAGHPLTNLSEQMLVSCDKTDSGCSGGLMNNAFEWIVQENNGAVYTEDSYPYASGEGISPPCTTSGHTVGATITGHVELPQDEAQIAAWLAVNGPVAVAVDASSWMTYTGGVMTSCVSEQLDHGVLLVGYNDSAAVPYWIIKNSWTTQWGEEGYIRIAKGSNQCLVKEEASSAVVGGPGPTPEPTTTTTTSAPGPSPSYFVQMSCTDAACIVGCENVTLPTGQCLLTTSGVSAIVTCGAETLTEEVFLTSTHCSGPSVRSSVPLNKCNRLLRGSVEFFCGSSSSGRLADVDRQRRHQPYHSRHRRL
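Cruzain (1.5 nM) preincubated 15 min at RT with compound in 100 mM sodium acetate pH 5.5, 5 mM DTT, 0.01% Triton X-100. Reaction started with 2 uM Z-FR-AMC; AMC fluorescence (ex 360/em 450 nm) change over 60 s gave rate.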
RE007 growth inh – qHTS Assay for Inhibitors of the HIV-1 protein Vpr; S. pombe RE007 Vpr strain, BacTiter-Glo ATP luminescence, 24 h; control for the full effect not named in the record; Potency, µM (top dose mostly 92.2 µM), inactives show at the highest dose activity change, negative = less growth; 0.21% of 360,000 active; AID 651644, 2012; active = well fitted falling curve with a large enough effect; inconclusive = small, poorly fitted or top-dose-only effect; inactive = no such curve, though single readings can be large or run the other way;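 further: on the % scale 0 is the no-effect control and ±100 the full control effect; nearly all actives have a fitted effect of over 50% in size; the assay follows cell death caused by Vpr and the record does not say whether a fall means rescue or toxicity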
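Fission yeast strain RE007, carrying one chromosomally integrated HIV-1 vpr copy, was seeded at OD 0.01 in PMG+AL medium with 23 nL pinned compound. After 24 h at 30 °C and 99% humidity, viability was read by BacTiter-Glo luminescence.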
SARS PLP yeast – qHTS of Yeast-based Assay for SARS-CoV PLP. S. cerevisiae expressing SARS-CoV PLpro, growth rescue; control for the full effect not named in the record. Potency, µM (top dose mostly 32.9 µM), for inactives: top-dose activity, positive = growth rescue. 0.19% of 330,000 active. AID 485353, 2010; active means well fitted rising curve with a large enough effect; inconclusive means small, poorly fitted or top-dose-only effect; inactive means no such curve, though single readings can be large or run the other way; further: 0% is about no effect; nearly all actives have a fitted effect of over 55% in size; growth read by luminescence after 48 h
StopGo reporter – High Throughput Screening for Foot and Mouth Disease Virus Antivirals; Potency, µM (titrated, usually from 57.9 µM), without a hit: at the top dose signal change, negative = less light; 1.2% of 410,000 active; human cells with a luciferase reporter of 2A StopGo recoding; control for the full effect not named in the record; active = well fitted falling curve with a large enough effect; inconclusive = small, poorly fitted or top-dose-only effect; inactive = no such curve, though single readings can be large or run the other way; tested in HEK293T cells; further: on the % scale 0 is the no-effect control and ±100 the full control effect; nearly all actives have a fitted effect of over 45% in size; luciferase light after 4 h
LASV entry inh – qHTS for Inhibitors of binding or entry into cells for Lassa Virus; Potency, µM (titrated, usually from 37.9 µM), inactives show at the top dose activity change, negative = inhibition, actives largely listed as inhibitors; 1.2% of 300,000 active; Lassa virus pseudotype entry inhibition, cell reporter; control for the full effect not named in the record; AID 540256, 2011; active means well fitted inhibition curve with a large enough effect; inconclusive means small, poorly fitted or top-dose-only effect, or effect the other way; inactive means flat fitted curve, though single readings scatter; tested in HEK293 cells; further: on the % scale 0 is the no-effect control and ±100 the full control effect; nearly all actives have a fitted effect of over 50% in size; luciferase read-out
Cruzain inh noDet – qHTS Assay for Promiscuous and Specific Inhibitors of Cruzain (without detergent). Cruzipain (Trypanosoma cruzi), P25779. purified cruzain, Z-FR-AMC fluorescence, no detergent. Potency, µM, inactives show max response, negative = inhibition, actives largely listed as inhibitors. 2.3% of 200,000 active;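 further: plate controls were enzyme without inhibitor for no effect and buffer without enzyme for full effect; nearly all actives have a fitted effect of over 40% in size; top concentration of the series not given in the record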
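Detergent-free condition (0.00005% Triton X-100) in acetate buffer pH 5.5 with DTT. 1.5 nM enzyme and compound were pre-mixed 15 min, then 2 uM Z-FR-AMC substrate added; reaction progress from fluorescence change between first and third reads (60 s).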
NS1 function inh – qHTS Assay for Inhibitors of Influenza NS1 Protein Function; Potency, µM (titrated, usually from 46.1 µM), inactives show at the highest dose activity, positive = more growth; S. cerevisiae slowed by influenza A NS1, growth recovery by OD600; AID 2326, 2010; 0.4% of 270,000 active; active means well fitted rising curve with a large enough effect; inconclusive means small, poorly fitted or top-dose-only effect; inactive means no such curve, though single readings can be large or run the other way; further: nearly all actives have a fitted effect of over 50% in size
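Recovery from NS1-induced slow growth read by OD600 in budding yeast switched to galactose assay medium (pH 6.0, -URA) at 1:100 dilution. Compound 23 nl per well; the matching strain lacking NS1 serves as control.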
MARV entry inh – qHTS for inhibitors of binding or entry into cells for Marburg Virus | AID 540276, 2011 | 1.8% of 300,000 active | Marburg virus pseudotyped entry inhibition, cell reporter; control for the full effect not named in the record; about a third of the inactives were read at about 46 µM | Potency, µM (highest dose often 37.8 µM), for the others: at the highest dose activity change, negative = inhibition, most hits filed as inhibitors; active = well fitted inhibition curve with a large enough effect; inconclusive = small, poorly fitted or top-dose-only effect, or effect the other way; inactive = flat fitted curve, though single readings scatter; tested in HEK293 cells; about a fifth of its hits are not listed in these tables; further: on the % scale 0 is the no-effect control and ±100 the full control effect; luciferase read-out
An asterisk follows results filed as active; ? = inconclusive; . = no result given; [ ] = another dose, or the depositor's remark. Unless noted, the call rests on the fitted dose curve; in most records, active means well fitted curve in the direction sought with a large enough effect; inconclusive means small, poorly fitted or top-dose-only effect, or another doubt; inactive means no such curve, though single readings can be large; an effect the other way counts as inactive or inconclusive. Potency means the concentration at half of the fitted maximal effect.

no.	structure	Cruzain inh Det	RE007 growth inh	SARS PLP yeast	StopGo reporter	LASV entry inh	Cruzain inh noDet	NS1 function inh	MARV entry inh
1	CCOC(=O)C(C)Sc1nnc(NC(=O)c2cccc([N+](=O)[O-])c2C)s1 (stereo not drawn)	-6.0%	2%	-5%	-24%	6%	24%	4%	27%
2	CCCNC(=O)c1ccc2c(c1)ncn2-c1ccc(C)cc1C	0.9%	.	.	1%	-4%[46.1 µM]	14%	.	.
3	CCc1c(O)nc(SCC(N)=O)n(-c2ccccc2F)c1=O	0.2%	10%	1%	2%	8%	5%	7%	-10%
4	COc1cccc(NC(=O)c2oc3ccc(S(=O)(=O)N4CCC5(CC4)OCCO5)cc3c2C)c1	-2.4%	.	.	-26%	?	?	.	.
5	CCOC(=O)Cc1nnc(NC(=O)c2ncn[nH]2)s1	11%	-10%	-2%	6%	3%	-5%	-1%	-8%
6	CN(C(=O)CCc1nnc(CCCCc2ccccc2)o1)C1CC(C)(C)NC(C)(C)C1	.	-11%	0%	11%	-5%	.	3%	11%[46.1 µM]
7	Cc1ccc(N2NC(=O)/C(=C\c3cc4c(cc3[N+](=O)[O-])OCO4)C2=O)cc1C	-7.4%	-18%	14%	13µM*	-7%	1%	?	5%
8	CC(C)c1ccc(C2=NC(c3ccncc3)=Nc3ccc(F)cc3N2)cc1	-7.1%	.	.	-30%	?	5%	.	7%[46.1 µM]
9	CCCC(CCC)c1nnc(NC(=O)c2ccco2)s1	.	-11%	-24%	2%	-2%	.	-118%	-17%
10	O=C(Nc1ccc2c(c1)OCO2)C1CC(c2ccccc2Cl)=NO1 (stereo not drawn)	-4.6%	-20%	-4%	.	6%	2%	-33%	?
11	CCOC(=O)c1cccc(NS(=O)(=O)c2cc3c(cc2C)NC(=O)CO3)c1	-7.2%	.	.	39%[activator]	0%[46.1 µM]	1%	.	.
12	C=CCOC(=O)COc1ccc2c(C)c(C)c(=O)oc2c1	-18%	?	-9%	17%	34%	-2%	-36%	-3%
13	CC(Oc1ccccc1)C(=O)N1CCCc2ccccc21 (stereo not drawn)	9.2%	-14%	5%	-16%	30%	0%	-5%	?
14	CC(C)n1c(O)c(N=NC(=O)C2COc3ccccc3O2)c2ccccc21 (stereo not drawn)	.	-15%	-2%	?	?	.	-11%	?
15	O=C(CN1C(=O)NC2(CCCC2)C1=O)NCc1cccc(Cl)c1	.	-5%	-7%	-7%	10%[46.1 µM]	.	.	-2%[46.1 µM]
16	Cc1ccc(Cl)c(OCC(=O)Nc2ccc3c(c2)OCCO3)c1	-1.1%	0%	-1%	61%[activator]	80%[14.3 µM]	-6%	-6%	?
17	O=C(CNC(=O)/C=C/c1ccccc1)N=Nc1c(O)n(Cc2ccccc2)c2ccccc12	-1.2%	.	-2%	.	.	?	2%	-8%
18	COc1ccccc1CNC(=O)COC(=O)c1cc2ccccc2o1	.	-13%	-1%	-4%	4%	.	.	18%
19	CC(C)CC(NC(=O)C(NC(=O)C1CCC(=O)N1C(=O)OCc1ccccc1)C(C)C)C(=O)N1CCCC1C(N)=O (stereo not drawn)	.	-5%	3%	7%	.	.	-2%	6%[46.1 µM]
20	COC(=O)C1=NN(c2ccccc2OC)C2C(=O)N(c3ccccc3OC)C(=O)C12 (stereo not drawn)	-6.3%	-3%	-3%	-16%	-2%	8%	-2%	-2%
21	COc1ccc(CCNC(=O)CN2C(=O)COc3ccc(S(=O)(=O)N4CCCCCC4)cc32)cc1OC	-0.4%	.	.	?	?	12%	.	-13%[46.1 µM]
22	Cc1ccc(-n2c(C)nnc2SC(C)C(=O)N2CCCC2)cc1 (stereo not drawn)	.	-10%	-1%	12%	1%	.	1%	-4%[46.1 µM]
23	COc1cc(NC(=O)Nc2nnc(N3CCCCCC3)s2)cc(OC)c1	-5.9%	.	.	?	12%[46.1 µM]	-3%	.	0%[46.1 µM]
24	Cc1c(C)[n+](=O)c2c(n1[O-])CCCCC2	3.3%	47%	-3%	11%	-5%	-21%	-4%	15%[46.1 µM]
25	COc1ccccc1-n1cnc2cc(NC(C)=O)ccc21	-3.8%	-2%	4%	5%	15%	1%	-7%	25%
26	CCOc1ccc(C(=O)NCC(=O)OC(C)C(=O)NCc2ccco2)cc1OCC (stereo not drawn)	-3.7%	-9%	13%	-7%	8%	-1%	1%	4%
27	CCOCCCn1c(=NC(=O)c2ccco2)c(C(=O)OCC)cc2c(=O)n3cccc(C)c3nc21	.	-3%	0%	19%	.	.	8%	.
28	COc1ccc(CNC(=O)NC2CCCCC2)cc1	-0.8%	14%	-3%	.	-43%	-7%	1%	20%
29	COc1ccc(C2=NCN(c3ccc(C)cc3)C(=S)N2)cc1	-1.6%	-3%	12%	11%	-1%	7%	-9%	4%
30	O=C(O)/C=C\C(=O)Nc1ccc(Oc2ccc(Br)cc2)cc1	.	-21%	-3%	16%	10%[46.1 µM]	.	0%	5%[46.1 µM]

From compound 17 to 19, as listed above:
no.	structure	Cruzain inh Det	RE007 growth inh	SARS PLP yeast	StopGo reporter	LASV entry inh	Cruzain inh noDet	NS1 function inh	MARV entry inh
17	O=C(CNC(=O)/C=C/c1ccccc1)N=Nc1c(O)n(Cc2ccccc2)c2ccccc12	-1.2%	.	-2%	.	.	?	2%	-8%
18	COc1ccccc1CNC(=O)COC(=O)c1cc2ccccc2o1	.	-13%	-1%	-4%	4%	.	.	18%
19	CC(C)CC(NC(=O)C(NC(=O)C1CCC(=O)N1C(=O)OCc1ccccc1)C(C)C)C(=O)N1CCCC1C(N)=O (stereo not drawn)	.	-5%	3%	7%	.	.	-2%	6%[46.1 µM]

(listing goes on)
no.	structure	Cruzain inh Det	RE007 growth inh	SARS PLP yeast	StopGo reporter	LASV entry inh	Cruzain inh noDet	NS1 function inh	MARV entry inh
31	S=c1[nH]c(-c2ccccc2)cn1-c1ccccc1	.	22%	3%	5%	.	.	-8%	.
32	Cc1ccc(C)c(-n2cc(CN3CCCN(C=O)CC3)c(-c3ccccc3)n2)c1	.	-8%	0%	11%	.	.	-3%	.
33	Cc1nc2scc(-c3cccs3)c2c(=O)o1	-1.8%	-27%	-4%	-16%	6%	3%	2%	19%
34	O=C(CC(C(=O)O)C1CCCO1)NCCc1ccc2c(c1)OCO2 (stereo not drawn)	5.0%	0%	-2%	6%	3%	-14%	8%	10%
35	CCCOC(=O)/C(C)=N\NC(=O)c1ccco1	1.4%	-14%	-4%	-17%	?	0%	-9%	?
36	COc1ccc(N2C(=O)c3ccccc3NC2c2ccc(OC)c(Cn3cc([N+](=O)[O-])cn3)c2)cc1 (stereo not drawn)	.	-8%	-2%	-2%	.	.	2%	.
37	C=C1SC(=Nc2ccccc2Cl)N(C(=O)c2sc3ccccc3c2Cl)C1(C)C	.	5%	-4%	4%	?	.	-7%	?
38	COc1ccc(CNC(=O)C2CCN(S(=O)(=O)c3ccc4c(c3)CC(C)N4C(C)=O)CC2)cc1 (stereo not drawn)	.	2%	7%	-25%	-6%[46.1 µM]	.	-7%	15%[46.1 µM]
39	O=C(CCC(=O)Nc1ccccc1Cl)NNS(=O)(=O)c1ccc(Cl)cc1	.	2%	-4%	10%	.	.	6%	.
40	COC(=O)c1ccccc1NC(=O)Cn1c(=O)n(CCCC(=O)NCCc2ccc(OC)c(OC)c2)c(=O)c2ccccc21	-0.1%	.	.	8%	2%[46.1 µM]	-1%	.	2%[46.1 µM]
41	CCOc1ccc(Cn2nnc3c(=O)[nH]c(C4CCN(C(=O)c5ccccc5)CC4)nc32)cc1	-2.7%	.	.	-17%	-11%[46.1 µM]	15%	.	10%[46.1 µM]
42	Cc1ccc(-n2ncc3c(NCCCc4ccccc4)ncnc32)cc1C	0.0%	.	.	-3%	-3%[46.1 µM]	-3%	.	.
43	Cc1ccc2cc3c(NC(=O)c4ccco4)nn(CC(C)C)c3nc2c1	-3.4%	-5%	-2%	0%	-15%	-5%	-8%	-2%
44	CCCCN(C)C(=O)CCCc1c[nH]c2ccccc12	-3.0%	0%	19%	51%[activator]	5%	7%	-18%	?
45	CCN(CC)C(=O)CSc1nc2cc3c(cc2c(=O)n1CCCC(=O)NCCc1ccc(OC)c(OC)c1)OCO3	.	-6%	1%	-7%	.	.	.	2%[46.1 µM]
46	CSc1cccc(N=C2C(=O)Nc3ccccc32)c1	.	4%	-2%	0%	21%[46.1 µM]	.	1%	?
47	CCc1ccc(C(=O)COC(=O)c2cccs2)cc1	-7.6%	.	-4%	6%	.	-2%	-63%	-7%
48	Cc1cc(NC(=O)CCC(=O)N(CCc2ccccc2)C(C(=O)NC2CCCC2)c2ccco2)no1 (stereo not drawn)	1.9%	0%	0%	-22%	2%	17%	-35%	?
49	Cc1ccccc1NC(=O)C1c2ccccc2Oc2ccccc21	3.2%	5%	2%	-19%	.	-28%	1%	0%
50	Cc1ccc(OCC(=O)N2CCN(S(=O)(=O)c3ccccc3[N+](=O)[O-])CC2)cc1	.	-7%	1%	-18%	-2%	.	-2%	?
51	Oc1[nH]c2ccccc2c1/C=N/N1CCCCC1	-9.8%	-6%	?	18%	-6%	?	-32%	?
52	CCCC(=O)Nc1nnc(SCC(=O)Nc2ccc3c(c2)OCCO3)s1	.	1%	-5%	-3%	.	.	.	17%[46.1 µM]

Assay outcomes deposited in PubChem BioAssay by National Center for Advancing Translational Sciences (NCATS).

Rows are unselected; overall some 4.5% were active at least once.
